# Source: PubChem BioAssay (National Center for Advancing Translational Sciences (NCATS))
# Vaccinia Venus = vaccinia inhibition (Venus reporter); Vaccinia virus Venus reporter expression, fluorescence; AID 720580; Potency, µM (top dose mostly 36.5 µM), inactives show at the highest dose activity change, negative = inhibition, usual class: inhibitors; 330,000 tested, 0.46% active; active means well fitted inhibition curve with a large enough effect; inconclusive means small, poorly fitted or top-dose-only effect; inactive means no such curve, though single readings can be large or run the other way; tested in A549 cells; also: nearly all actives have a fitted effect of over 30% in size; inactives centre near -10
# VACV mCherry inh = inhibitors of vaccinia virus infection (mCherry reporter signal) | Vaccinia virus mCherry reporter infection, fluorescence; about a quarter of the inactives have no number | Potency, µM (series often up to 36.5 µM), for inactives: at the top dose activity change, negative = inhibition, hits mostly inhibitors | 310,000 tested, 0.63% active | AID 720579; active = well fitted inhibition curve with a large enough effect; inconclusive = small, poorly fitted or top-dose-only effect; inactive = no such curve, though single readings can be large or run the other way; tested in A549 cells; also: nearly all actives have a fitted effect of over 35% in size; inactives centre near -10
# * marks the source's active call; other numbers are inactive results; i = inactive; ? = inconclusive; · = not tested or not shown; [ ] = remark or other dose. % is scaled to controls: 0 for no effect and ±100 for the full control effect; potency is read from the fitted curve at half-maximal effect.
# Order of values – Vaccinia Venus	VACV mCherry inh
COc1ccc(-c2cc(=O)[nH][nH]2)cc1
  -25%	·
CCOC(=O)C(NCCc1ccccc1)(NC(=O)CC)C(F)(F)F (stereo not given)
  -6%	-21%
O=S(=O)(c1ccc(F)cc1)N1CCn2c(nc3ccccc32)C1
  -5%	9%
O=C(Nc1cccc(Cl)c1)c1csc([C@@H]2C[C@H](O)[C@@H](CO)O2)n1
  -4%	16%
O=C(NC1CCCCC1)c1c(O)nc2sccn2c1=O
  -3%	-8%
O=C(O)c1ccccc1N/N=C/c1cc(Br)cc(Br)c1O
  -5%	-22%
CC(C)(C)C(=O)Nc1nnc(-c2ccccc2)c(-c2ccccc2)n1
  -18%	-26%
CCc1nc(SCc2ccccc2C#N)n[nH]1
  -14%	0%
CCOC(=O)COc1ccc(S(=O)(=O)NCC2CCCO2)cc1 (stereo not given)
  -8%	i
CC(=O)c1cc2c(cc1NC(=O)c1cc(C)nn1-c1ccccc1)OCO2
  ?	9%
Cc1ccc(NC(=O)[C@H](CSCc2ccccc2)N2Cc3ccccc3C2=O)cc1
  4%	-10%
Cc1ccc(C(=O)Nc2ncn[nH]2)cc1
  -10%	-9%
CCCn1c(C)cc(-c2csc(N)n2)c1C
  1%	·
COc1ccc(NC(=O)Nc2ccc3c(c2)C(=O)N([C@H](C)CO)C[C@@H](C)[C@@H](CN(C)C(=O)C2CCCCC2)OCCCC[C@H](C)O3)cc1
  -13%	i
S=c1[nH]nc(CNc2cccc(Cl)c2)o1
  -4%	-13%
CC(C)(CN1CCCC1)NS(=O)(=O)c1ccc(Cl)cc1
  -6%	-18%
CC(=O)c1c(C)[nH]c(C(=O)N(CCc2ccccc2)Cc2ccccc2)c1C
  -15%	i
Cc1cc(Br)cn2c(Cc3ccccc3)c(-c3ccco3)nc12
  -4%	21%
C#CCNC(=O)C[C@@H]1C[C@@]2(C(=O)OC)CCCCC=C2N(Cc2ccco2)C1=O
  13%	15%
CSCC[C@H](NC(=O)OC(C)(C)C)C(=O)N/N=C/c1cccc2nccnc12
  -5%	-10%
CCC(=O)Nc1nnc(Sc2ccc(N(C)C)cc2)s1
  -3%	i
O=C(N/C(=C\c1ccco1)C(=O)N1CCCCC1)c1ccc([N+](=O)[O-])cc1
  -3%	i
CCOC(=O)C1=C(C)NC(=O)NC1c1ccc(NC(C)=O)cc1 (stereo not given)
  -17%	-10%
O=C(O)C1=C[C@@H](c2coc3ccccc3c2=O)C[C@@H](OCCCCO)O1
  7%	-14%
COC(=O)c1sccc1NC(=O)c1ccc(C)o1
  -5%	-19%
Cc1onc(-c2c(F)cccc2Cl)c1C(=O)Nc1ccc(S(=O)(=O)N2CCOCC2)cc1
  -12%	-23%
Cc1cc(C)cc(-n2c(=O)[nH]c3ccccc3c2=O)c1
  5%	-4%
COC(=O)c1cn(C(=O)c2ccc(OC)cc2)c2ccccc12
  ?	-22%
O=C(CCSc1nnc2scc(-c3ccccc3)n12)Nc1nc(-c2ccccc2)ns1
  -8%	i
CCn1cc(CN2CCC(n3nccc3NC(=O)C3CCCC3)CC2)c(C)n1
  -13%	-12%

# As entered above.
# For Vaccinia Venus, CC(=O)c1c(C)[nH]c(C(=O)N(CCc2ccccc2)Cc2ccccc2)c1C reads -15%
# For VACV mCherry inh, Cc1cc(Br)cn2c(Cc3ccccc3)c(-c3ccco3)nc12 reads 21%
# For Vaccinia Venus, O=C(N/C(=C\c1ccco1)C(=O)N1CCCCC1)c1ccc([N+](=O)[O-])cc1 reads -3%
# For VACV mCherry inh, CCOC(=O)C1=C(C)NC(=O)NC1c1ccc(NC(C)=O)cc1 (stereo not given) reads -10%
# For VACV mCherry inh, Cc1onc(-c2c(F)cccc2Cl)c1C(=O)Nc1ccc(S(=O)(=O)N2CCOCC2)cc1 reads -23%
# For Vaccinia Venus, CCC(=O)Nc1nnc(Sc2ccc(N(C)C)cc2)s1 reads -3%

# New compounds follow
# Order of values – Vaccinia Venus	VACV mCherry inh
O=C(NNc1ccc(Cl)nn1)c1ccc(Cl)cc1
  -9%	-4%
CSc1ccc(Cn2c(C)c(C(=O)NCCC#N)sc2=O)cc1
  -1%	3%
Cc1oc2c(CN3CCCC3)c(O)ccc2c(=O)c1Oc1ccccc1Br
  -4%	-3%
Cc1ccc(NC(=O)CN2C(=O)COc3ccc(S(=O)(=O)NC4CCCC4)cc32)c(Cl)c1
  -10%	-4%
O=C1CCCC(O)=C1C1C2=C(CCCC2=O)OC2=C1C(=O)CCC2
  4%	-2%
Cc1ccc(-c2n[nH]c(=O)c3ccccc23)cc1S(=O)(=O)Nc1ccccc1
  ?	?
CCCNC(=O)C(Cc1ccc(OC)cc1)NC(=O)c1ccc(C#N)cc1 (stereo not given)
  -7%	i
O=C(Nc1ccon1)C1CCN(S(=O)(=O)c2cccs2)CC1
  -16%	-14%
O=C(Nc1ccc(Cl)cc1)Nc1cccc(C(=O)O)c1
  -1%	-10%
COc1cc(/C=C/C(=O)OCC(=O)Nc2oc(C)c3c(C)n[nH]c(=O)c23)ccc1OC(F)F
  ?	-25%
Cc1cnc(CNc2ncncc2-c2ccccc2C(F)(F)F)cn1
  0%	9%
CCN(Cc1nc2ccccc2c(=O)[nH]1)C(=O)c1cccc(OCc2c(C)noc2C)c1
  -13%	-5%
COc1ccc(C=C(C(C)=O)C(=O)c2ccccc2)cc1
  -6%	i
CC(C)CCCCCCNC(=S)Nc1ccc(S(=O)(=O)N2CCOCC2)cc1
  ?	?
COc1ccccc1C1C([N+](=O)[O-])=C(N)Oc2c1c(=O)oc1ccccc21 (stereo not given)
  6%	-6%
CCOC(=O)C1CCN(C(=O)/C(C)=C\c2ccccc2)CC1
  3%	-6%
Cc1nc2cc(NC(=O)COc3ccccc3C#N)ccc2n1-c1ccccc1
  -7%	·
O=S(=O)(NCCc1cccs1)c1ccc(Br)cc1
  -13%	?
Cc1cc(C2C(=O)C(C(=O)c3ccc(Cl)cc3)C(=O)CC2(C)C)on1 (stereo not given)
  -2%	·
CC1CCC2C(C1)Nc1c(C(=O)O)cccc1C2(C)C (stereo not given)
  3%	-16%
O=C(Cc1ccc(-n2c(=O)c3ccccc3n(Cc3ccccc3F)c2=O)cc1)NCC1CCCO1 (stereo not given)
  0%	i
C[C@H]1CN([C@@H](C)CO)C(=O)CCCn2cc(nn2)CO[C@@H]1CN(C)C(=O)Nc1ccccc1
  -8%	-2%
O=C(CP(=O)(c1ccccc1)c1ccccc1)Nc1nc2ccccc2s1
  -20%	-27%
O=C(c1cccc(S(=O)(=O)N2CCc3ccccc32)c1)N1CCOCC1
  -22%	-5%
O=C(NCc1ccc(F)cc1)c1cnc2sccn2c1=O
  -5%	-3%
O=C(/C=C/c1ccccc1Cl)NC(=S)Nc1ccccc1C(=O)NC1CCCCC1
  -9%	i
COc1ccc(-n2nc3c(c2NC(=O)C2CCCC2)CS(=O)(=O)C3)cc1
  -13%	i
CCCCNc1c(-c2ccc(OC)c(Sc3ccc(OC)cc3)c2)nc2cnccn12
  -26%	-17%
N#CC(C(=O)C1CCCCC1)c1nc2ccccc2[nH]1 (stereo not given)
  -28%	-28%
O=S(=O)(c1ccccc1C(F)(F)F)N1CCC(n2cnc3ccccc32)CC1
  -16%	-13%
CC(C)(C)C(=O)Cn1nc(Cl)nc1Cl
  -5%	i
COc1cccc(-c2noc(-c3ccc(Cl)nc3)n2)c1
  1%	i
O=C(NC1CC1)C1=C[C@H](c2csc3ccccc23)C[C@H](OCCCCO)O1
  -14%	i
CCc1nn(C(CC)C(=O)NCc2cccs2)c(=O)c2cc3occc3n12 (stereo not given)
  -11%	i
Cc1cc2nnn(-c3nnc(-c4ccccc4)c4ccccc34)c2cc1C
  -20%	·
CCOC(=O)Cn1c(=O)n(-c2ccccc2OC)c2nc(-c3ccccc3)nc(C(N)=O)c21
  10%	-5%
CC1=CCC(C(=O)O)(C(=O)N/N=C/c2cccnc2)C(c2ccccc2)C1 (stereo not given)
  -4%	2%
CCc1ccc2c(c1)c(=O)c(S(=O)(=O)c1ccccc1)cn2CC(=O)Nc1ccc(OC)cc1
  -1%	-5%
O=C1CCCS(=O)(=O)c2ccccc21
  -9%	-9%
CCOc1c(CNCc2ccc(C(=O)O)cc2)cccc1OC
  -3%	-15%
COc1cccc(CNc2nc(NCc3cccs3)nc3ccsc23)c1
  -17%	-25%
Cc1cc(C)c2c(-c3ccc(F)cc3)c(C#N)c(=O)n(C)c2n1
  -6%	i
O=C(c1cc(-c2ccc(Br)cc2)nc2ccccc12)N1CCC1
  -9%	-21%
O=C(CCCC(=O)c1ccc(F)cc1)c1ccc(F)cc1
  -13%	-14%
Cc1csc(SCC(=O)NC(=O)c2ccccc2)n1
  -2%	-15%
CCOc1ccccc1NC(=S)NCc1cccn1C
  -1%	4%
COC(=O)c1c(NC(=O)CSc2nc3ccccc3c(=O)n2Cc2ccco2)sc(C)c1C
  4%	-5%
Cc1nc2c(o1)CCc1ccccc1C2O (stereo not given)
  -13%	-12%
O=C(CSc1ccccn1)Nc1nc2ccccc2s1
  -12%	i
CC(=NNC(=O)c1ccncc1)c1ccc2ccccc2c1O
  33%[activator]	?
O=[N+]([O-])c1cc(Cl)c(Cl)cc1Cl
  -12%	i
O=c1c(-c2ccc(O)cc2)coc2c(C3OC(CO)C(O)C(O)C3O)c(O)ccc12 (stereo not given)
  -12%	-9%
Cc1cc(NC(=O)c2ccc(Cl)c(Cl)c2)ccc1-c1cc2ccccc2oc1=O
  -17%	-23%
Cc1cc(-c2n[nH]c(=S)n2/N=C/c2ccc(Br)s2)n[nH]1
  -12%	-4%
CN1CCN(C(=O)C2=C[C@H](c3ccccc3)C[C@H](OCc3ccc(CO)cc3)O2)CC1
  -9%	-4%
Cc1n[nH]c(=O)c2c(NC(=O)COC(=O)/C=C/c3cccc(C(F)(F)F)c3)oc(C)c12
  -5%	-15%
Cc1nc2ccc(NC(=O)c3ccccc3)cc2c(=O)n1Cc1ccc(F)cc1
  ?	-17%
CCC(=O)c1ccccc1OCCCn1cncn1
  -4%	-16%
COC(=O)c1ccc(C)c(NC(=O)C(CCSC)NC(=O)c2cc(OC)c(OC)c(OC)c2)c1 (stereo not given)
  -3%	11%
CN(C)C(=O)NC1CCCCCCCCCCC1
  -11%	·

# Complete entries from above.
# Record of `CN1CCN(C(=O)C2=C[C@H](c3ccccc3)C[C@H](OCc3ccc(CO)cc3)O2)CC1` : Vaccinia Venus = -9%; VACV mCherry inh = -4%
# Record of `Cc1n[nH]c(=O)c2c(NC(=O)COC(=O)/C=C/c3cccc(C(F)(F)F)c3)oc(C)c12` : Vaccinia Venus = -5%; VACV mCherry inh = -15%

# More results.
# Order of values – Vaccinia Venus	VACV mCherry inh
COc1ccc(N/N=C(/C#N)S(=O)(=O)C(C)(C)C)cc1
  -7%	-2%
Cc1cccc(OCCSc2nncn2C)c1
  -7%	i
COc1cccc(C(=O)c2cn(CC(=O)Nc3cccc(C(F)(F)F)c3)c3nc(C)ccc3c2=O)c1
  -16%	-18%
CN(C)c1ccc(-c2ccnc3c2CC(C)(C(=O)Nc2cccc(OC(F)(F)F)c2)O3)cc1 (stereo not given)
  10%	34%[activator]
COc1ccccc1NS(=O)(=O)c1cc(NC(=O)Nc2ccc(Cl)cc2Cl)ccc1N1CCCCC1
  -23%	-7%
CCCn1c(SCC(=O)NCCc2ccccc2)nnc1C(C)C
  2%	-25%
COC(=O)[C@]1(C)N[C@H](CN(C)C(=O)Nc2ccc(F)cc2)[C@@H]2C(=O)N(C)C(=O)[C@@H]21
  -3%	-4%
COCCCNC(=O)COc1ccc2oc3c(c2c1)CCCC3
  -5%	17%
Cc1cn([C@H]2C[C@H](O)[C@@H](CNC(=O)[C@@H]3CCCN3Cc3ccccc3)O2)c(=O)[nH]c1=O
  -3%	-2%
O=C(CSc1ccccn1)Nc1nc2c(ccc3ccccc32)s1
  -9%	i
O=C(CCN1C(=O)/C(=C/c2ccc3c(c2)OCO3)SC1=S)Nc1ccccc1
  7%	i
COc1cc(N2C(=O)CSC23C(=O)N(Cc2cccc(F)c2)c2ccccc23)cc(OC)c1OC (stereo not given)
  13%	-6%
O=C1c2cnc3ncnn3c2CC2c3ccccc3CCN12 (stereo not given)
  -9%	-20%
CCc1ccc(CNC(=O)c2cc3cc(S(=O)(=O)N4CCCCC4)ccc3n2C)cc1
  -28%	-4%
COc1cc(NC(=O)[C@@H](NC(=O)c2ccco2)C(C)C)c(OC)cc1NC(=O)c1ccccc1
  0%	-6%
COc1ccc(N/N=C(\C#N)C(=N)SCc2ccccc2)cc1
  ?	?
O=C(CN1C(=O)c2ccccc2S1(=O)=O)Nc1ncccn1
  -5%	-14%
Cc1nc2ccn(Cc3cccnc3)c(=O)c2cc1C(=O)Nc1ccc(OC(F)(F)F)cc1
  -13%	-6%
CC(C)C[C@@H](CN)NC(=O)c1nc[nH]c1C(=O)N[C@@H](CC(C)C)C(=O)CNC[C@H](C)NC(=O)c1nc[nH]c1C(=O)N[C@@H](CC(=O)O)C(=O)O
  4%	-15%
CN(C)CCCNc1nc2cc(-c3ccn[nH]3)sc2c(=O)n1C
  2%	i
O=C(NCCc1ccccc1)C(=O)NCC1OCCCN1S(=O)(=O)c1ccc(F)cc1 (stereo not given)
  -14%	i
CCCC[C@@H]1CNC(=S)N1CCCc1cc(OC)c(OC)c(OC)c1
  3%	i
CN(NC1OC(=O)c2ccccc21)c1c([N+](=O)[O-])cc(C(F)(F)F)cc1[N+](=O)[O-] (stereo not given)
  -15%	-21%
Cn1c(C=O)c(-c2ccc3cc[nH]c3c2)c2ccccc21
  -13%	-8%
CCOC(=O)c1c(C)oc2ncnc(NCCc3ccccc3)c12
  -6%	-10%
Cn1nccc1-c1coc2c(C(=O)NCC3CCOCC3)cccc12
  -4%	-17%
